Compound activity as filed in PubChem.
Cruzain noTriton = inhibitors of Trypanosoma cruzi cruzain without detergent | AID 1476 | 200,000 tested, 2.3% active | purified cruzain, Z-FR-AMC fluorescence, no detergent | Potency, µM, without a hit: max response, negative = inhibition, usual class: inhibitors | P25779;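 further: plate controls were enzyme without inhibitor for no effect and buffer without enzyme for full effect; nearly all actives have a fitted effect of over 40% in size; top concentration of the series not given in the record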
Target sequence (P25779 123-467 limits assumed): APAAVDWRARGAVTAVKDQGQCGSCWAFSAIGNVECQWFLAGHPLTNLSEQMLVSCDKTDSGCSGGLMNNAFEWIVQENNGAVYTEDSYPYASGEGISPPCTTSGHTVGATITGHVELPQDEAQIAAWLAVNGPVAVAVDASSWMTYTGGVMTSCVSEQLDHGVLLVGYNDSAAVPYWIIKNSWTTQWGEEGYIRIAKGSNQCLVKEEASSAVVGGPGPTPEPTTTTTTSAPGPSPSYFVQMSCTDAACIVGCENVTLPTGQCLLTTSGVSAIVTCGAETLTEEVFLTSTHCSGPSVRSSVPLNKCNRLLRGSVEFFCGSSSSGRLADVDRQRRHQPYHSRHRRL
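Purified cruzain at 1.5 nM, pre-incubated 15 min with compound at room temperature in 100 mM sodium acetate pH 5.5, 5 mM DTT, 0.00005% Triton X-100. Reaction started with 2 uM Z-FR-AMC; AMC fluorescence increase over 60 s gives rate.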
SARS PLP yeast = SARS-CoV PLP inhibition in yeast | Potency, µM (highest dose often 32.9 µM), inactives show top-dose activity, positive = growth rescue | 330,000 tested, 0.19% active | AID 485353 | S. cerevisiae expressing SARS-CoV PLpro, growth rescue; control for the full effect not named in the record; active means well fitted rising curve with a large enough effect; inconclusive means small, poorly fitted or top-dose-only effect; inactive means no such curve, though single readings can be large or run the other way; further: 0% is about no effect; nearly all actives have a fitted effect of over 55% in size; growth read by luminescence after 48 h
Marburg entry inh = inhibitors of Marburg virus binding or cell entry; 300,000 tested, 1.8% active; Marburg virus pseudotyped entry inhibition, cell reporter; control for the full effect not named in the record; about a third of the inactives were read at about 46 µM; Potency, µM (series often up to 37.8 µM), for inactives: at the highest dose activity change, negative = inhibition, actives largely listed as inhibitors; AID 540276; active = well fitted inhibition curve with a large enough effect; inconclusive = small, poorly fitted or top-dose-only effect, or effect the other way; inactive = flat fitted curve, though single readings scatter; tested in HEK293 cells; about a fifth of its hits are not listed in these tables; further: on the % scale 0 is the no-effect control and ±100 the full control effect; luciferase read-out
NS1 function inh = influenza NS1 inhibition; Potency, µM (series often up to 46.1 µM), for inactives: at the top dose activity, positive = more growth; 270,000 tested, 0.4% active; S. cerevisiae slowed by influenza A NS1, growth recovery by OD600; AID 2326; active means well fitted rising curve with a large enough effect; inconclusive means small, poorly fitted or top-dose-only effect; inactive means no such curve, though single readings can be large or run the other way; further: nearly all actives have a fitted effect of over 50% in size
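Recovery from NS1-induced slow growth read by OD600 in budding yeast switched to galactose assay medium (pH 6.0, -URA) at 1:100 dilution. Compound 23 nl per well; the matching strain lacking NS1 serves as control.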
LASV entry inh = blocks Lassa virus binding to or entry into cells. Lassa virus pseudotype entry inhibition, cell reporter; control for the full effect not named in the record. Potency, µM (series often up to 37.9 µM), for inactives: at the highest dose activity change, negative = inhibition, usual class: inhibitors. 300,000 tested, 1.2% active; active means well fitted inhibition curve with a large enough effect; inconclusive means small, poorly fitted or top-dose-only effect, or effect the other way; inactive means flat fitted curve, though single readings scatter; tested in HEK293 cells; further: on the % scale 0 is the no-effect control and ±100 the full control effect; nearly all actives have a fitted effect of over 50% in size; luciferase read-out
RE007 growth inh = less growth of the S. pombe RE007 Vpr strain. AID 651644. Potency, µM (doses to about 92.2 µM), inactives show at the top dose activity change, negative = less growth. 360,000 tested, 0.21% active. S. pombe RE007 Vpr strain, BacTiter-Glo ATP luminescence, 24 h; control for the full effect not named in the record; active = well fitted falling curve with a large enough effect; inconclusive = small, poorly fitted or top-dose-only effect; inactive = no such curve, though single readings can be large or run the other way;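 further: on the % scale 0 is the no-effect control and ±100 the full control effect; nearly all actives have a fitted effect of over 50% in size; the assay follows cell death caused by Vpr and the record does not say whether a fall means rescue or toxicity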
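Fission yeast RE007 carrying one integrated HIV-1 vpr copy, seeded at OD 0.01 in PMG+AL medium with 23 nL pinned compound. Grown 24 h at 30 degrees; viability read by BacTiter-Glo luminescence after 5 min.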
Cruzain inh Det = cruzain (T. cruzi) inhibition with detergent. Potency, µM, inactives show max response, negative = inhibition, actives largely listed as inhibitors. 200,000 tested, 0.43% active. purified cruzain, Z-FR-AMC fluorescence, 0.01% Triton. AID 1478;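 further: plate controls were neutral wells for no effect and buffer without enzyme for full effect; nearly all actives have a fitted effect of over 40% in size; top concentration of the series not given in the record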
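Z-FR-AMC hydrolysis (2 uM substrate) by cruzain (1.5 nM) monitored kinetically at ex 360/em 450 nm after 15 min room-temperature compound exposure; 0.01% Triton X-100, pH 5.5, 5 mM DTT.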
2A StopGo = lowers the luciferase signal of an FMDV 2A StopGo reporter | Potency, µM (titrated, usually from 57.9 µM), for the others: at the highest dose signal change, negative = less light | 410,000 tested, 1.2% active | human cells with a luciferase reporter of 2A StopGo recoding; control for the full effect not named in the record; active = well fitted falling curve with a large enough effect; inconclusive = small, poorly fitted or top-dose-only effect; inactive = no such curve, though single readings can be large or run the other way; tested in HEK293T cells; further: on the % scale 0 is the no-effect control and ±100 the full control effect; nearly all actives have a fitted effect of over 45% in size; luciferase light after 4 h
Active calls of the source: *; ? = inconclusive; nt = no result given; & = joins results of further samples; [ ] = remark or other dose. Unless noted, the call rests on the fitted dose curve; in most records, active means well fitted curve in the direction sought with a large enough effect; inconclusive means small, poorly fitted or top-dose-only effect, or another doubt; inactive means no such curve, though single readings can be large; an effect the other way counts as inactive or inconclusive. Potency means the concentration at half of the fitted maximal effect.

Structure	Cruzain noTriton	SARS PLP yeast	Marburg entry inh	NS1 function inh	LASV entry inh	RE007 growth inh	Cruzain inh Det	2A StopGo
O=C(Oc1ccc(C(=S)N2CCOCC2)cc1Br)c1ccccc1F	-14%	-31%	?	-8%	-8%	38%	-4.1%	1%
C=CCN1C(=O)/C(=C/c2cccs2)C(=O)NC1=S	-6%	4%	?	-2%	-24%	?	-2.6%	-23%
Cc1cc(C)nc(NS(=O)(=O)c2ccc(NC(=O)c3ccc(S(=O)(=O)N(C)C)cc3)cc2)n1	nt	6%	nt	-10%	nt	5%	nt	20%
CC(C)CN(C(=O)CC1OC(=O)c2ccccc21)c1c(N)n(Cc2ccccc2)c(=O)[nH]c1=O (stereo unspecified)	nt	-9%	-2%	nt	1%	-7%	nt	-3%
Cc1cc(C)n(C(=O)Cn2nc(C(F)F)cc2C)n1	-11%	23%	28%	7%	?	2%	-1.6%	3%
CCOc1ccc(N(CC(=O)Nc2ccccc2)S(C)(=O)=O)cc1	0%	-8%	27%	-50%	13%	0%	1.5%	36%[activator]
COc1ccc(/C=C/C(=O)OCC(=O)Nc2ccc(Cl)cc2F)cc1S(=O)(=O)N1CCOCC1	11%	8%	19%	-5%	-2%	3%	-9.5%	16%
CC(C)C1N(C(=O)N(C)C)CCN1S(=O)(=O)c1ccccc1 (stereo unspecified)	nt	1%	2%[46.1 µM]	-1%	0%	17%	nt	7%
O=C(O)CNS(=O)(=O)c1cccc2nsnc12	6%	6%	-7%	-1%	-1%	-4%	-0.1%	4%
COc1ccc(-c2cc3c(=O)n(CC(=O)Nc4ccc(Br)c(C)c4)ccn3n2)cc1OC	3%	nt	nt	nt	?	nt	-0.7%	-12%
CCC(=O)N/N=C/c1ccc(-c2ccc([N+](=O)[O-])cc2)o1	nt	-1%	4%	-4%	?	9%	nt	-12%
O=C(c1cccnc1NCc1ccc(F)cc1)N1CCOCC1	-2%	2%	?	-1%	4%	19%	2.1%	-19%
CCOc1ccc(S(=O)(=O)N2CCC(C(=O)NC3CC3)CC2)cc1C	nt	-1%	9%	-9%	5%	10%	nt	-12%
CCOC(=O)Cc1ccc2sc(-c3ccccc3)nc2c1	7%	-21%	?	-16%	?	?	-7.8%	-20%
O=C(COC(=O)CCCCCN=C1NS(=O)(=O)c2ccccc21)Nc1ccc(Cl)c(Cl)c1	-5%	6%	?	2%	18%	9%	-8.0%	-13%
COc1ccc(CCNC(=O)C(=O)NCC2CCCN2S(=O)(=O)c2ccccc2)cc1OC (stereo unspecified)	nt	-2%	?	nt	?	2%	nt	22µM*
CC(=O)c1ccc(-n2nnnc2SCC(=O)N2CCc3ccccc3C2)cc1	-8%	-21%	-2%	-39%	?	-17%	-6.5%	-9%
C=CCN1C(=O)N(c2ccc(Cl)cc2)C(=O)C1CC(=O)Nc1ccc(F)cc1 (stereo unspecified)	nt	-1%	nt	1%	nt	-14%	nt	-17%
CCOc1ccccc1-c1cc(C(=O)N/N=C/c2ccc(O)c(OC)c2)c2ccccc2n1	?	?	?	?	7.1µM*	-2%	-7.0%	?
Cc1cccc(NC(=O)C2(C)CC3c4ccccc4C2c2ccccc23)c1 (stereo unspecified)	-27%	-1%	1%	26%	-6%	23%	2.6%	-20%
COc1ccc(CCn2c(O)c(C=Nc3cccc(F)c3)c(=O)[nH]c2=O)cc1OC	nt	0%	?	-6%	2%[46.1 µM]	3%	nt	-16%
O=[N+]([O-])c1ccc(S(=O)(=O)N2CCN(c3ccc(N4CCOCC4)nn3)CC2)cc1	nt	-2%	4%[46.1 µM]	nt	12%	1%	nt	-12%
Cc1ccc(S(=O)(=O)N2CCC(C(=O)Nc3nnc(C)s3)CC2)cc1	nt	0%	1%[46.1 µM]	18%	16%[46.1 µM]	4%	nt	-3%
COc1ccc(NC(=O)CSc2nncc(=O)n2N)cc1OC	nt	8%	-2%	6%	-1%	7%	nt	-1%
O=C(CN1CCN(c2ccccc2F)CC1)Nc1nnc(C(F)(F)F)s1	nt	-1%	nt	-1%	nt	4%	nt	1%
COc1ccc2oc(C(=O)NCc3ccco3)c(C)c2c1	nt	-2%	nt	-8%	nt	-13%	nt	36%[activator]
COc1ccc(NC(=O)CN(C)S(=O)(=O)c2cnc[nH]2)cc1Cl	5%	-2%	22%&-2%[46.1 µM]	4%	12%&19%[46.1 µM]	14%	-2.1%	5%&-12%
CCN(CC)S(=O)(=O)c1ccc(OC)c(NC(=O)c2cc([N+](=O)[O-])ccc2Cl)c1	-1%	0%	?	6%	1%	-1%	2.0%	?
CCOC(=O)c1c(NC(=O)c2cc(CC)on2)sc(C(C)=O)c1C	9%	nt	-20%[46.1 µM]	nt	-3%[46.1 µM]	nt	-2.2%	0%
Cc1cccc(NS(=O)(=O)c2ccc([N+](=O)[O-])cc2)n1	nt	7%	4%	-12%	1%	8%	nt	49%[activator]
Cc1ccc(C)c(OCC(=O)N2CCN(Cc3ccc4c(c3)OCO4)CC2)c1	nt	-1%	-14%	4%	-25%	-5%	nt	-20%
CCOc1ccccc1C(=O)N1CCc2cc(OC)c(OC)cc2C1COc1ccc(OC)cc1 (stereo unspecified)	?	nt	nt	nt	-19%[46.1 µM]	nt	6.0%	-29%
Cc1ccc(NC(=S)/N=C(\N)Nc2nc(C)c3ccccc3n2)cc1C	?	10µM*	?	11µM*	-24%	17%	-2.3%	-25%
COc1ccc(N2CCN(C(=O)CCC(=O)N3Cc4ccccc4Oc4ncccc43)CC2)cc1	nt	1%	-27%[46.1 µM]	-3%	-26%[46.1 µM]	8%	nt	-25%
CCCCCCn1c(CNC(=O)c2ccccc2)nc2ccccc21	-12%	nt	-16%[46.1 µM]	nt	3%[46.1 µM]	nt	-4.2%	-1%
CN1CCN(c2ccccc2NC(=O)c2ccc(OCc3ccccc3)cc2)CC1	-30%	-3%	-19%[46.1 µM]	-10%	?	-8%	2.4%	-2%
CC1CCCCC12NC(=S)N(c1ccccc1)N2 (stereo unspecified)	nt	0%	-7%[46.1 µM]	0%	-3%	-25%	nt	6%
CCOc1ccc(CC(C(N)=O)C(N)=O)cc1CN(C)C	-8%	2%	1%	-1%	?	6%	5.3%	-24%
COC(=O)C1=C(C)N(Cc2ccccc2)C(=NCc2ccccc2)N[C@H]1c1ccccc1	nt	-7%&-8%	?	11%	nt	9%	nt	-25%
COc1ccc(C)cc1NC(=O)C(OC(=O)c1cnccn1)c1ccccc1 (stereo unspecified)	nt	10%	0%	nt	4%	-1%	nt	12%
COc1ccc(C2NC(=O)NC(C)=C2C(=O)OC2CCC(C)CC2)cc1 (stereo unspecified)	nt	25%	nt	?	nt	-4%	nt	-17%
Cc1ccc(S(=O)(=O)Nc2cc(C(=O)N3CCC4(CC3)OCCO4)ccc2N2CCCCC2)cc1	?	-3%	?	-35%	?	11%	-0.4%	34%[activator]
CC(=O)Nc1ccc(NC(=O)c2oc3ccc4c(c3c2C)C(=O)CC(C)(C)O4)cc1	?	nt	nt	nt	-13%[46.1 µM]	nt	-9.4%	21%
CCOC(=O)N1CCN(C(=O)CCCn2c(=S)[nH]c3ccc(Br)cc3c2=O)CC1	5%	-6%	-28%	1%	-3%	2%	-5.1%	-11%
OCCCNc1nnc(-c2ccccc2)c2ccccc12	nt	4%	nt	4%	nt	5%	nt	-9%
Cc1ccc2c(=O)cc(C(=O)Nc3ccc(S(=O)(=O)N4CCCCC4)cc3)oc2c1	-16%	nt	?	nt	3%[46.1 µM]	nt	-2.5%	-9%
CCc1ccc(NC(=O)Cn2cnc3c(=O)n(C)c(=O)n(C)c32)cc1	nt	-2%	14%[46.1 µM]	nt	nt	-6%	nt	-6%
O=C(Nc1ccc(Br)cc1)c1ccccc1CC[N+](=O)[O-]	-5%	5%	6%	-6%	5%	-14%	-1.0%	-4%
Cc1cnc(C(=O)OCc2ccc(Br)cc2)cn1	nt	-1%	6%	1%	-12%	1%	nt	-6%
CC(=O)NNC(=O)CN1C(=O)CN=C(c2ccccc2)c2cc(Br)ccc21	nt	0%	-3%[46.1 µM]	nt	nt	-3%	nt	-18%
C/C(=N\NC(=O)c1nn(C)cc1Br)c1cccc(NC(=O)C2CCCC2)c1	5%	4%	17%	-8%	8%	0%	4.6%	20%
O=C(COC(=O)C1CCN(S(=O)(=O)c2ccc3c(c2)OCCO3)CC1)Nc1cc(C(F)(F)F)ccc1Cl	-5%	-17%	?	9%	0%	1%	-3.8%	-21%
COc1cc(OC)cc(C(=O)Nc2ccc(-c3nc4cc(C(C)C)ccc4o3)cc2)c1	13µM*	nt	nt	nt	-13%[46.1 µM]	nt	-1.9%	-7%
COc1ccc(S(=O)(=O)NCCSC(C)(C)C)cc1	7%	4%	17%	5%	5%	1%	2.3%	26%
CCOC(=O)c1cnc2c(-c3ccccc3OC)c(C)nn2c1C	nt	-1%	nt	-3%	nt	-21%	nt	-1%
Cc1ccc(-c2noc(CCCC(=O)NC3CCCC3)n2)cc1	nt	-1%	?	-9%	-26%[46.1 µM]	0%	nt	-26%
CC(C)n1c(SCC(=O)c2ccc3c(c2)OCCO3)nc2c1c(=O)n(C)c(=O)n2C	1%	3%	-8%	-26%	?	-15%	3.9%	nt
C(=N\Nc1nc2ccccc2[nH]1)/c1cccc2cccnc12	nt	-4%	nt	-53%	nt	-8%	nt	41%[activator]
O=C(O)c1cc(S(=O)(=O)NCc2ccco2)c(Cl)cc1Cl	-9%	?	17%	-5%	-8%	-2%	1.7%	-13%
COc1ccc(C)cc1NC(=O)C1CCCN(S(=O)(=O)c2cnc[nH]2)C1 (stereo unspecified)	-2%	3%	nt	-5%	nt	9%	2.9%	-15%
